Source: PubChem
GAA glycogen: inhibitors or activators of human alpha-glucosidase glycogen cleavage | AID 2100 | Potency, µM (series often up to 76.4 µM), inactives show at the highest dose activity change, negative = inhibition, usual class: inhibitors | P10253 | 0.38% of 300,000 active | recombinant GAA, glycogen substrate, Amplex Red glucose oxidase fluorescence;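 further: 0% = full enzyme reaction and -100% = no-enzyme basal signal; the screen sought inhibitors and activators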
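Recombinant human alpha-glucosidase (4 nM final) hydrolysed bovine liver glycogen (30 ug) for 40 min at 37 C in pH 5.0 citrate/phosphate with 0.01% Tween-20. Released glucose detected by glucose oxidase/Amplex Red, Ex 573/Em 610 nm. Compounds up to 77 uM; AC50 from Hill fits.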
GAA inh: blocks human lysosomal alpha-glucosidase. P10253. purified human GAA, 4-MU-alpha-glucoside fluorescence. Potency, µM (doses to about 76.9 µM), for inactives: top-dose activity change, negative = inhibition, usual class: inhibitors. 0.005% of 200,000 active;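 further: plate controls were uninhibited enzyme wells for no effect and no-enzyme background for full effect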
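AC50 values come from Hill fits of compound titrations (up to 77 uM) against 4 nM human enzyme. Substrate 4-methylumbelliferyl-alpha-D-pyranoside at 400 uM, pH 5.0 citrate buffer, 20 min room temperature; fluorescence Ex 365/Em 440 after alkaline stop.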
TRb-SRC2 inh: disrupts binding of human TR beta to SRC2. AID 1469. Potency, µM (highest dose often 106 µM), for inactives: at the top dose activity change, negative = inhibition, most hits filed as inhibitors. TRbeta-SRC2 peptide binding, fluorescence polarization; receptor liganded with 1 µM T3. 0.065% of 280,000 active;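 further: plate controls were bound peptide for no effect and peptide without receptor for full effect; nearly all actives have a fitted effect of over 50% in size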
Target sequence (P10828 whole entry, looked up): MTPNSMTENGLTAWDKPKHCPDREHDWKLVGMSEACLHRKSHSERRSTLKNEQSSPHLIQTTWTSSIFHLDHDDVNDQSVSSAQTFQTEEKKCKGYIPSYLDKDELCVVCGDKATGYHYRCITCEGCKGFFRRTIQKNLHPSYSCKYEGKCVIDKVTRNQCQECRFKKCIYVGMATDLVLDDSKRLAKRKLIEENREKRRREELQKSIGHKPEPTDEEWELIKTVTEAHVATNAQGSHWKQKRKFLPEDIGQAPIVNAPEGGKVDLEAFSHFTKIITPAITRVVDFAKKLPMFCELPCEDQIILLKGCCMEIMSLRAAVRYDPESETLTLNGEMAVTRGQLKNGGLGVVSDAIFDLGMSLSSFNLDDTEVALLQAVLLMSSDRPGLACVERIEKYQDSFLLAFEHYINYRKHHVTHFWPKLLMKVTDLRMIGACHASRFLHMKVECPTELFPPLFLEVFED
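Fluorescence polarization of 20 nM Texas Red SRC2 peptide (20-aa NR interaction domain) bound to 0.6 uM human TRb ligand-binding domain, with 1 uM T3, after 5 hr at ambient temperature; inhibition seen as decreased polarization.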
GAA spleen mod: lysosomal alpha-glucosidase (human) modulation. Potency, µM (doses to about 79.9 µM), inactives show at the highest dose activity change, negative = inhibition, hits mostly inhibitors. human spleen homogenate, 4-MU-alpha-glucoside fluorescence. 0.006% of 240,000 active. P10253;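 further: 0% = enzyme with vehicle and -100% = no enzyme basal signal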
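Compounds were titrated against alpha-glucosidase in spleen homogenate at pH 5.0, with 1 mM 4-methylumbelliferyl substrate for 40 min at 37 C. Reactions were quenched with pH 10 NaOH/glycine and fluorescence measured.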
TR SRC2 fluor cs: alters Texas Red total fluorescence, flagging assay interference | TRb/SRC2 Texas Red total fluorescence interference | Potency, µM (series often up to 106 µM), for the others: at the highest dose fluorescence change, negative = quenching | 0.29% of 280,000 active | AID 1479; active means well fitted curve in either direction with a large enough effect; inconclusive means small, poorly fitted or top-dose-only effect
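Human TRβ ligand-binding domain (0.6 uM) and Texas Red SRC2 peptide (20 nM) in Tris buffer with 1 uM T3 and 5% DMSO were incubated with pinned compound for 5 hr at ambient temperature. Total fluorescence was computed as S + 2P (555/632 nm).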
RECQ1 inh: blocks DNA unwinding by human RECQ1; P46063; 0.54% of 240,000 active; RECQ1 DNA unwinding, red fluorescence kinetic read; AID 2549; Potency, µM (top dose mostly 57.3 µM), for inactives: at the top dose activity, negative = inhibition, most hits filed as inhibitors;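 further: plate controls were vehicle for no effect and no enzyme for full effect; nearly all actives have a fitted effect of over 30% in size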
Target sequence (P46063 whole entry, looked up): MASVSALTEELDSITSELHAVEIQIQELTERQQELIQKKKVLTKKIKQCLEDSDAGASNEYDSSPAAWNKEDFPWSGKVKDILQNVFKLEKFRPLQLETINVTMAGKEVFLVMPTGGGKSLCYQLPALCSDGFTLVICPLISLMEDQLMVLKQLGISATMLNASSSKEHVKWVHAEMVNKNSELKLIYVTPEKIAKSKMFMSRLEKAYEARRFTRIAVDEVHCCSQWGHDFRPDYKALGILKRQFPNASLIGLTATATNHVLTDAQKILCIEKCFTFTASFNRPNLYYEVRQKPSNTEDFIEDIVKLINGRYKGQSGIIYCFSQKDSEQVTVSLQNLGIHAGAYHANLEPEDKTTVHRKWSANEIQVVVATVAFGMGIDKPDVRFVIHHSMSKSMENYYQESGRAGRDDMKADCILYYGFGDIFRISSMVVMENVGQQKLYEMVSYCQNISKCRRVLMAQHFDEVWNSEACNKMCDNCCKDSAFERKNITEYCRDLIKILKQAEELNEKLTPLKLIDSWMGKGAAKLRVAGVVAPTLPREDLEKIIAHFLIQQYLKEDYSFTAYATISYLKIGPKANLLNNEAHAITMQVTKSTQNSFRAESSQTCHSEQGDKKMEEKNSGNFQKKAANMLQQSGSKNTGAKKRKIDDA
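RECQ1T1 50 nM; forked duplex (20 bp + 30-nt ss tails) 200 nM, ATP 2 mM final; pH 8.0, 2 mM MgCl2, 2.5 ug/ml poly(dI-dC); 15 min compound preincubation; discontinuous kinetic read over 2 h at RT.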
* hit, by the source's call; i = inactive; ? = inconclusive; . = no result given; & = joins results of further samples; [ ] = another dose, or the depositor's remark. Unless noted, the call rests on the fitted dose curve; in most records, active means well fitted curve in the direction sought with a large enough effect; inconclusive means small, poorly fitted or top-dose-only effect, or another doubt; inactive means no such curve, though single readings can be large; an effect the other way counts as inactive or inconclusive. Unless noted, on the % scale 0 is the no-effect control and ±100 the full control effect; potency means the concentration at half of the fitted maximal effect.

SMILES | GAA glycogen | GAA inh | TRb-SRC2 inh | GAA spleen mod | TR SRC2 fluor cs | RECQ1 inh
CCn1c(COc2cccc(C)c2)nnc1SCC(=O)Nc1cccc(C(=O)O)c1 | 4% | -5% | -6% | 2% | -1% | -3%
O=C(COC(=O)c1cc([N+](=O)[O-])ccc1NCCO)Nc1ccc2c(c1)OCO2 | 10% | 4% | 14% | -6% | 0% | i
CC(/C=N/n1c(COc2ccccc2)n[nH]c1=S)=C\c1ccccc1 | -29% | 3% | -12% | -3% | -1% | -4%
C[C@]12C=CC(=O)C=C1CC[C@@H]1[C@@H]2[C@@H](O)C[C@@]2(C)[C@H]1CC[C@]2(O)C(=O)CO | 14%[76.3 µM] | . | . | . | . | .
Cc1ccc(S(=O)(=O)N(C)C)cc1N | -10% | 8% | -6% | 1% | -2% | -7%
CCN(CC)S(=O)(=O)c1cc(C(=O)n2cccn2)c(Cl)cc1Cl | -1% | 1% | -3% | -26% | -4% | i
C[C@]12C[C@H](O)[C@H]3[C@@H](CCC4=CC(=O)CC[C@@]43C)[C@@H]1CC[C@@H]2C(=O)CO | 7% | -1%[15.4 µM] | -1% | 5%&6% | -1% | -4%&-1%
COc1ccc(CCN2C(=O)c3[nH]nc(-c4ccccc4O)c3C2c2ccc(C)cc2)cc1OC (centres undefined) | -12% | ? | -5% | -19% | -4% | -2%
C/C(=N\NC(=O)c1ccc(NS(=O)(=O)c2cccs2)cc1)c1ccccn1 | -21% | . | 3% | -11% | -1% | -11%
Cc1ccc(OCc2nnc(SCC(=O)Nc3ccc4c(c3)OCCO4)n2Cc2ccco2)cc1 | -7% | -5% | -5% | 0% | -2% | -8%
Cc1oc(-c2ccc(-c3ccccc3)cc2)nc1CN(C)C1CCOC1 (centres undefined) | -13% | 0% | 1% | -20% | -1% | -8%
Cc1cc(-c2csc(NC(=O)c3ccc(C#N)cc3)n2)c(C)n1Cc1ccco1 | 18% | -9% | 1% | 1% | 0% | -4%
Cc1ccc(-c2nc(CN(C)C3CCOC3)c(C)o2)s1 (centres undefined) | -7% | ? | 6% | -5% | -3% | -8%
COC(=O)C1=NN(c2cccc3ccccc23)C2C(=O)N(c3ccccc3OC)C(=O)C12 (centres undefined) | -1% | . | 8% | 0% | -3% | i
COc1ccc(C2CC(=O)N3CN(c4ccc(C)c(Cl)c4)CSC3=C2C#N)cc1 (centres undefined) | -7% | 3%[15.4 µM] | 10% | -5% | -1% | -11%
CC(=O)c1ccc(NC(=O)c2cnsn2)cc1 | 11% | 3% | -1% | -3% | 0% | 14%
CC1CN(C2CC(C)(C)NC(C)(C)C2)CCC1=O (centres undefined) | -2% | -6% | -5% | -10% | 0% | 3%
COC(=O)CCc1sc(Nc2ccccc2)nc1-c1ccc(OC)cc1 | -25% | ? | -13% | -8% | -3% | -12%
O=c1oc2ccccc2cc1-c1csc(Cc2nc(-c3ccc(Cl)cc3)cs2)n1 | -2% | 1% | -1% | 5% | 1% | -5%
CC(C)NC(=O)NC(=O)CSc1nnc(C(F)(F)F)n1C | 5% | 1% | 3% | -1% | 0% | i
N#CCCN(CCC#N)C(=O)c1ccc2c(c1)OCO2 | 7% | 0% | 3% | -10% | 0% | i
O=C(CCN1C(=O)C2(OCCO2)c2ccccc21)c1ccccc1 | 3% | -2% | 3% | 1% | 0% | i
O=[N+]([O-])c1cc(C(F)(F)F)ccc1NCCOc1ccccc1 | -9% | -4% | 4% | -3% | -3% | -5%
COc1ccc2cc3cc(C(=O)NCCCN4CCc5ccccc5C4)sc3nc2c1 | -1% | ? | 2% | 2% | 0% | -1%
C[C@@]12C=CC(=O)C=C1CC[C@@H]1[C@@H]2[C@H](O)C[C@]2(C)[C@@H]1CC[C@]2(O)C(=O)CO | . | . | -1%[53 µM] | -12%[29.1 µM] | -2%[53 µM] | -9%[25.9 µM]
O=C(N/N=C1\CCCc2ccccc21)C(O)c1ccccc1 (centres undefined) | 10% | ? | -24%[53 µM] | -7% | 0%[53 µM] | i
CCc1ccccc1N/N=C(/C)c1c(O)cc(C)oc1=O | ? | -4% | 7% | -1% | 0% | i
Cc1ccc([N+](=O)[O-])cc1-c1ccc2cccc(C)c2n1 | 2% | 1% | -15%[53 µM] | -3% | 3%[53 µM] | i
COc1cc(C(=O)NCc2cccc3ccccc23)ccc1OCc1ccccc1 | -3% | -6% | -5% | -1% | -1% | -3%
C/C(CC(=O)Nc1c(C)cc(C)cc1C)=N\NC(=O)OC(C)(C)C | -5% | -1% | 2% | 9% | -5% | i
CC(C)NC(=O)CC(=O)NN=C1CCCCC1 | 1% | 13% | 2% | 0% | -10% | i
COc1ccc(CNc2nc(-c3cccnc3)nn2C(=O)c2ccco2)cc1 | -1% | -7% | 5% | -7% | 1% | -1%
Cc1cc(C)c(S(=O)(=O)Nc2cccnc2)c(C)c1 | -20% | 3% | -14% | 4% | 1% | -9%
S=c1[nH]nc(-c2ccccc2Cl)n1Cc1ccccc1 | -11% | ? | 1% | -1% | -1% | -6%
Cc1nn(-c2ccc(Cl)cc2)c2[nH]c(=O)c(CNCc3ccc4c(c3)OCO4)cc12 | -14% | -9% | 3% | 3% | 1% | -1%
CSc1nc(-c2ccco2)nn1C(=O)c1ccccc1Cl | 5% | . | 6% | 0% | 0% | 6%
N#CC1=C2SCN(c3ccccc3)CN2C(=O)CC1c1c(Cl)cccc1Cl (centres undefined) | -1% | -3%[15.4 µM] | 7% | 6% | -3% | -7%
N#Cc1ccc(/C=N/NC(=O)c2cc(-c3cccs3)nc3ccccc23)cc1 | -9% | -7% | 10% | -6% | 10% | -5%
CC1=C(C(=O)Nc2cccnc2)C(c2cccnc2)n2ncnc2N1 (centres undefined) | -16% | -9% | -2% | 1% | -1% | i
CN(C)CCN(Cc1cccs1)c1ccccn1 | 3% | -5%[15.4 µM] | 7% | 8% | 4% | 34%[activator]
CC1=C(C(N)=O)C(c2cccc(OCc3ccccc3)c2)n2nnnc2N1 (centres undefined) | -1% | -5% | 4% | -6% | -2% | 6%
CN(Cc1nc2ccc(F)cc2[nH]1)Cc1c(C(=O)N(C)C)nc2ccc(Cl)cn12 | -11% | 1% | 0% | -1% | 0% | -5%
S=c1[nH]nc(COc2ccccc2)n1/N=C/c1ccncc1 | 2% | 2% | 6% | 2% | -1% | i
c1ccc(CSc2ncn(-c3ccccc3)n2)cc1 | 2% | -10% | -5% | -3% | -5% | -4%
C=CCNC(=O)c1onc(CCl)c1C(=O)OC | -12% | 2% | -2% | -2% | -7% | -16%

Looked up by compound from above:
SMILES | GAA glycogen | GAA inh | TRb-SRC2 inh | GAA spleen mod | TR SRC2 fluor cs | RECQ1 inh
COc1ccc(CNc2nc(-c3cccnc3)nn2C(=O)c2ccco2)cc1 | -1% | -7% | 5% | -7% | 1% | -1%
C=CCNC(=O)c1onc(CCl)c1C(=O)OC | -12% | 2% | -2% | -2% | -7% | -16%
c1ccc(CSc2ncn(-c3ccccc3)n2)cc1 | 2% | -10% | -5% | -3% | -5% | -4%
CC1=C(C(=O)Nc2cccnc2)C(c2cccnc2)n2ncnc2N1 (centres undefined) | -16% | -9% | -2% | 1% | -1% | i
CN(Cc1nc2ccc(F)cc2[nH]1)Cc1c(C(=O)N(C)C)nc2ccc(Cl)cn12 | -11% | 1% | 0% | -1% | 0% | -5%
Cc1nn(-c2ccc(Cl)cc2)c2[nH]c(=O)c(CNCc3ccc4c(c3)OCO4)cc12 | -14% | -9% | 3% | 3% | 1% | -1%
CSc1nc(-c2ccco2)nn1C(=O)c1ccccc1Cl | 5% | . | 6% | 0% | 0% | 6%

(listing goes on)
SMILES | GAA glycogen | GAA inh | TRb-SRC2 inh | GAA spleen mod | TR SRC2 fluor cs | RECQ1 inh
CC(=O)c1cc(C#N)c(N2CCCC2)nc1C | 10% | 1% | 3% | 3% | 2% | -9%
CC1CC(C(F)F)n2nc(C(=O)Nc3sc4c(c3C#N)CCC(C(C)(C)C)C4)nc2N1 (centres undefined) | -2% | 7% | -5% | -1% | 1% | i
CCOC(=O)C1=C(C)Nc2nnnn2C1c1cccnc1 (centres undefined) | -7% | -26% | -1% | -9% | -2% | -14%
CCC(=O)Nc1cc(-c2cc3ccccc3oc2=O)ccc1OC | -14% | 1% | -11% | 5% | -3% | i
CC[C@@H]1CN2CCc3cc(OC)c(OC)cc3[C@H]2C[C@@H]1C[C@H]1NCCc2cc(OC)c(OC)cc21 | . | . | 6%[53 µM] | 1%[29.1 µM] | -9%[53 µM] | 8%[25.9 µM]
O=c1c2cc(Cl)cc(Cl)c2nc2n1CCC2 | -1% | -4% | -9% | 4% | -2% | -10%
O=C(c1ccc(OCCN2CCCCC2)cc1)c1c(-c2ccc(O)cc2)sc2cc(O)ccc12 | . | . | 1% | 2% | -4% | ?
CC1CC2C3CCC4=CC(=O)C=CC4(C)C3(F)C(O)CC2(C)C1(O)C(=O)CO (centres undefined) | 2% | . | -2% | -12% | -5% | -3%
CC(=O)N1CCN(c2ccc(OC[C@H]3CO[C@](Cn4ccnc4)(c4ccc(Cl)cc4Cl)O3)cc2)CC1 | -8%&-10% | -2%&0%[15.4 µM] | 4% | 2%&3%&1%&8%&-1% | -3% | 0%&-5%&6%&9%&-8%
C[C@]12C[C@H](O)C3[C@@H](CCC4=CC(=O)CC[C@@]43C)[C@@H]1CC[C@@H]2C(=O)CO (some centres undefined) | . | . | -4% | -9% | -1% | -10%
O=C1CC(c2cccc(Br)c2)C2=C(CCCC2=O)N1 (centres undefined) | 8% | 2% | -9% | -7% | -5% | -1%
S=c1[nH]nc(COc2ccccc2)n1/N=C/C=C/c1ccco1 | ? | . | 6% | 1% | -8% | 32µM*
CC1=C(C(=O)Nc2ccccc2)C(c2cccnc2)n2nc(-c3cccnc3)nc2N1 (centres undefined) | ? | -8% | -2% | 1% | 0% | -1%
Cc1cc(N2CCOCC2)n2nc(-c3cccc(F)c3)cc2n1 | 7% | ? | -25% | -11% | -1% | -3%
C=CCN(C(=O)Nc1ccc2oc(C)nc2c1)c1ccccc1 | -15% | ? | -2% | -4% | -2% | -5%
COc1ccc(/C=C/C(=O)OCC(=O)c2ccc3c(c2)NC(=O)CO3)c(OC)c1 | 7% | 2%[15.4 µM] | 5% | 7% | -2% | -6%
CC1=N/C(=C\c2ccc(OC(C)C)cc2)C(=O)N1c1ccc(C(=O)O)cc1 | -4% | -3% | -7% | -1% | -5% | i
CCN(CC)C(=O)CNc1ccc(C(F)(F)F)cc1[N+](=O)[O-] | 4% | 1% | -5% | 1% | 1% | -9%
CCCN1CCN(C(=O)CCCNC(=O)Cn2cnc3sc(C)c(C)c3c2=O)CC1 | 3% | 2% | -4% | 1% | 4% | i

3 compounds from above, arranged by molecular weight, lowest first:
SMILES | GAA glycogen | GAA inh | TRb-SRC2 inh | GAA spleen mod | TR SRC2 fluor cs | RECQ1 inh
Cc1cc(N2CCOCC2)n2nc(-c3cccc(F)c3)cc2n1 | 7% | ? | -25% | -11% | -1% | -3%
CC1=N/C(=C\c2ccc(OC(C)C)cc2)C(=O)N1c1ccc(C(=O)O)cc1 | -4% | -3% | -7% | -1% | -5% | i
COc1ccc(/C=C/C(=O)OCC(=O)c2ccc3c(c2)NC(=O)CO3)c(OC)c1 | 7% | 2%[15.4 µM] | 5% | 7% | -2% | -6%

Not all compounds are listed; count on the stated rates, not on these rows.
